Mtb hypoxia inh: Mtb hypoxia fluorescent reporter inhibition | M. tuberculosis hypoxia-regulated fluorescent reporter, fluorescence | fluorescence inhibition, % (concentration not given with the values) | hit rate 0.1% among 300,000 | AID 1159583;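 active = 35 to 45% if threefold the growth effect, above 45% if 1.5-fold the growth effect; inactive = the rest, general growth blockers included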;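 also: wells of about 50 µL received 100 nL stock; 0% = vehicle wells and 100% = reference inhibitor wells; whole bacteria with a GFP reporter of the hypoxia response; strong numbers were not always called active; many hits fall short of the cut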
PrP UTR inh: inhibition of PrP 5' UTR reporter expression; cell-based PrP 5' UTR mRNA reporter, plate reader; AID 488862; hit rate 0.35% among 340,000; inhibition, % (test concentration not listed);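 active = every replicate at 50% or more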;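 also: 0 = median of the neutral control wells; tested in H4 reporter cells; numbers are from one replicate; inactives centre near -14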
Autofluor counter: flagged as autofluorescent in microsphere protease counterscreen | compound autofluorescence counterscreen, microsphere flow cytometry; hits give high values | fluorescence intensity (concentration not given with the values) | hit rate 3.1% among 360,000;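 active = at least 3 SD above the mean of all compounds, about 16000 in these data; inconclusive = too few beads counted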;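 also: 100 nL of 1 mM stock went into each well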
BJeLR viability: kills HRASV12-expressing BJeLR cells; AID 1554; inhibition, % (no concentration beside the values); BJeLR (HRASV12) viability, CellTiter-Glo ATP luminescence, 48 h; reference of the scale not given here; hit rate 0.17% among 300,000;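 active = replicate mean above 50%; inconclusive = above 50% but judged a plate artefact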;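 also: 50 nL library stock added to about 25 µL; numbers are from one replicate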
ugtP null kill: kills S. aureus RN4220 lacking UgtP; S. aureus RN4220 ugtP deletion, OD600 growth, 16 h; some inactives read as strong as hits; growth inhibition, % (concentration not given with the values); hit rate 0.54% among 330,000; AID 1259309;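 active = z-score under -3 and OD600 up to 0.15 on both plates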;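 also: plate controls were untreated wells for no effect and antibiotic for full effect; wells of about 80 µL received 100 nL stock; the first replicate is given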
Sa RN4220 lethal: S. aureus RN4220 growth inhibition; OD600, 16 h; inhibition, % (test concentration not listed); hit rate 0.33% among 330,000;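 active = z-score of -3 or lower and OD600 up to 0.18 on both plates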;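 also: plate controls were untreated cells for no effect and reference antibiotic for full effect; stock transfer was 100 nL into about 80 µL; one replicate is shown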
Mtb hypoxia inh growth: also measured in Mtb hypoxia inh; calls as there; growth inhibition, %; measured here: M. tuberculosis growth (absorbance);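 0% = vehicle and 100% = reference antibiotic; read after six days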
Numbers without * were called inactive; ? = inconclusive; · = no result given; & = joins results of further samples.

Below each SMILES – Autofluor counter, BJeLR viability, Mtb hypoxia inh, ugtP null kill, Sa RN4220 lethal, PrP UTR inh, Mtb hypoxia inh growth
CC1CCCC(C)N1C(=O)COC(=O)C12CC3CC(CC(Cl)(C3)C1)C2 (configuration not stated)
  3635, ·, 8, 4, 5.7, -18, 5
CC(Nc1cc(N2CCN(S(C)(=O)=O)CC2)ccc1[N+](=O)[O-])c1ccccc1 (configuration not stated)
  2539, 5, -5, -9, -2.8, -4, 2
CCC(=O)Nc1ccccc1C(=O)C(=O)Nc1ccccc1
  1959, 0, 6, 10, 5.3, -22, 4
Cc1cc(SCC(=O)Nc2ccc(O)cc2)n2ncc(-c3ccccc3)c2n1
  3859, 16, 9, 3, 1.1, -15, -4
O=C(c1ccc(=O)[nH]c1)N(Cc1ccco1)C1(C(=O)NC2CCCCC2)CCCCC1
  3113, -1, -2, 1, 1.7, -13, 8
COc1ccc(C(=O)CCN2CCN(c3ccc(OC)cc3)CC2)cc1
  3675, -5, -9, 7, 0.9, 5, 6
Oc1ccc(Cl)cc1N=Cc1sc2ccccc2c1Cl
  4335, -4, ·, ·, ·, -36, ·
NC(=O)C1CCN(C(=O)CSc2nc3c(c(-c4ccccc4)n2)CCCC3)CC1
  4040, -8, ·, 2, 3.2, -3, ·
CCOc1cnc(C(=O)NNC(=O)C(Br)C(C)C)o1 (configuration not stated)
  4080, 4, 6, 2, 1.2, 3, 20
O=C(CSc1nnc2ccc(-c3ccncc3)nn12)c1cccs1
  4848, -2, 12, 6, 3.5, -7, 4
O=C(COc1cccc(NC(=O)c2ccccc2)c1)c1ccc(F)cc1
  2481, 13, 9, 0, 10, -11, 6
Cc1ccc(NC(=S)NCCc2ccc(S(N)(=O)=O)cc2)c(C)c1
  4789, -3, ·, 3, 2.1, -8, ·
COC(=S)NC(=NS(=O)(=O)c1ccc(Cl)cc1)c1ccccc1
  ·, ·, 8, 7, 4.3, ·, -6
C=CCN(Cc1nc(-c2ccc(OC)c(OC)c2)oc1C)C1CCS(=O)(=O)C1 (configuration not stated)
  4418, 5, -4, 1, 2.7, -8, -3
COc1ccc(OC)c(N(CC(=O)N2CCCCC2)S(=O)(=O)c2ccc(OC)c(OC)c2)c1
  3503, -3, 0, 2, 4.2, -12, 12
CCOC(=O)c1cc2c(c(CCO)n1)[C@H](CCO)N(S(=O)(=O)C(C)(C)C)C2
  3897, ·, -6, 0, -0.7, -10, 4
CC(=O)Nc1ccc(OCC(=O)NCc2ccccc2)cc1
  2011, -2, -6, -2, -2.3, -12, -8
[O-]/C(=C(\C(=S)Nc1ccc(SC(F)F)cc1)[n+]1ccccc1)c1cc(Cl)ccc1Cl
  4226, -5, 12, 8, -6.1, -41, 5
CC(=O)CC1c2cc(F)ccc2S(=O)(=O)N1c1ccc(N(C)C)cc1 (configuration not stated)
  ·, ·, -3, -2, -1.9, ·, 6
Cc1cc(C)n(C(=O)CCCCCCCC(=O)n2nc(C)cc2C)n1
  4296, 1, 5, 29, 4.6, -14, 8
Cc1ccc(-c2csc(N3CCN(S(=O)(=O)c4ccc5c(c4)NC(=O)CO5)CC3)n2)cc1
  5248, -3, 0, -4, -0.3, -14, 17
O=C(NN=Cc1cccs1)C1COc2ccccc2O1 (configuration not stated)
  ·, ·, 12, 5, -1.5, ·, 3
CC(=O)NCCc1nc2cc(NC(=O)Nc3ccccc3)ccc2n1C
  3775, 7, -3, -1, -1.2, 0, 13
CCCc1cc(=O)[nH]c(SCC(=O)N2N=C(c3ccc(Cl)cc3)CC2c2ccco2)n1 (configuration not stated)
  9235, -12, 2, -15, 4.2, -15, 2
CC(=O)C(Sc1nnnn1-c1ccc(O)cc1)c1ccccc1 (configuration not stated)
  3629, -2, -1, 10, 2.9, -14, 1
N#CC1=C(N)OC2=C(C(=O)CC(c3ccccc3)C2)C1c1ccoc1 (configuration not stated)
  2436, -6, -1, 6, 4.3, -16, -2
CN(Cc1cccs1)S(=O)(=O)c1cccs1
  8870, 4, 5, 0, 3.4, -30, -8
CC(=O)n1cc([C@H]2C=C(C(=O)N3CCOCC3)O[C@@H](OCc3ccc(CO)cc3)C2)c2ccccc21
  3544, 8, ·, ·, ·, 12, ·
Cc1ccc(CN2C(=O)CCC2(C)C(=O)NCc2cccnc2)cc1 (configuration not stated)
  4002, 3, 7, 11, 3.4, -20, 7
COc1ccc(-c2cc(-c3ccccc3)c(C#N)c(=S)[nH]2)cc1
  5430, 1, 9, -5, 0.8, -14, -5
Cn1c(SCC(=O)Nc2nccs2)nnc1-c1ccccn1
  5342, -2, 3, 3, 1.0, -12, 2
Cc1cc(C(=O)CSc2n[nH]c(N)n2)c(C)n1-c1ccc2c(c1)OCO2
  2643, 4, 5, 0, 2.9, -23, 1
C[C@H]1CCC[C@]2(CC(=O)c3cc(F)ccc3O2)C1
  3423, 1, ·, ·, ·, 5, ·
O=C1NC2=C(C(=O)CCC2)C(c2ccc([N+](=O)[O-])cc2)N1 (configuration not stated)
  3774, -16, 3, 2, 0.3, -16, 10
CCC(C(=O)N1CCN(C(=O)c2ccco2)CC1)c1ccccc1 (configuration not stated)
  4537, 1, 4, 2, 3.8, -5, 0
Cc1cnc(C(=O)OCC(=O)c2ccc(C)s2)cn1
  3753, ·, -4, -2, 0.9, -4, 3
ON=Cc1cccc[n+]1CCCCCC[n+]1ccccc1C=NO
  ·, ·, 10, -1, 3.1, ·, -1
CC(C)=CCc1cc([C@@H]2COc3c(ccc4c3C=CC(C)(C)O4)C2)c(O)cc1O
  5484, 2, ·, 15, 15, -13, ·
COc1ccc(C)cc1NC(=O)CSc1nnc(-c2ccco2)n1Cc1ccco1
  17132*, -2, 11, 14, 6.7, -8, 1
COC(=O)c1ccccc1NC(=O)c1cc(-c2ccco2)on1
  4529, 1, 0, 3, 2.1, -24, 1
CC(C)(C)C(=O)C1=C(O)C(=O)N(Cc2ccccc2)C1c1ccccc1Cl (configuration not stated)
  3654, 3, 13, 6, 9.1, -45, 2
Cn1cc(CN2CCCC(CO)C2)c(-c2ccc(Oc3ccccc3)cc2)n1 (configuration not stated)
  2743, -5, 7, 11, 5.5, -8, -2
O=C(Nc1ccc(C(=O)NCCCN2CCN(c3ccc(F)cc3)CC2)cc1)C1=CSCCO1
  4199, -2, ·, ·, ·, -3, ·
CCN(C(=O)Cn1nc(C)n2c(cc3cc(C)ccc32)c1=O)c1ccccc1
  4973, 3, 10, -8, 6.6, -35, 8
Cc1cc(=O)[nH]c(N/N=C/c2ccc(-c3ccc(F)cc3)o2)n1
  5983, 25, ·, ·, ·, -39, ·
O=C(Nc1cc(C(F)(F)F)ccc1Cl)C(NCc1ccccc1)c1ccccc1 (configuration not stated)
  2462, -6, 9, 5, 4.7, -9, 3
COc1cc2c(C#CCCO)c(-c3ccsc3)oc(=O)c2cc1OC
  3947, ·, ·, 3, 5.8, -8, ·
COc1ccccc1CNC(=O)COC(=O)c1ccc(Cl)nc1
  3954, ·, 11, 1, -1.8, -22, 12
CCOc1ccc(N=Cc2ccccc2O)cc1
  3512, ·, 8, 3, 5.7, -11, 4
CC(C=Cc1ccc2c(c1)OCO2)=NNC(=O)c1cccnc1
  ·, ·, 6, -5, 2.4, ·, -1
COc1ccc(CNC(=O)c2c(F)c(F)c(F)c(F)c2F)cc1
  2128, 0, ·, 7, -0.6, -26, ·
Cc1ccccc1NC(=O)Cc1nc(CSc2nnc(-c3ccc4c(c3)OCO4)o2)cs1
  2362, -1, ·, -6, -0.6, -35, ·
Cc1ccccc1Nc1nn2c(=O)c3ccccc3nc2s1
  23125*, 4, 6, -7, 3.5, -38, 15
Cc1cc(Cl)ccc1C(=O)C1CCCN(C(=O)CCn2cnnn2)C1 (configuration not stated)
  4442, 0, 4, 2, 3.5, -34, 2
O=C(NNC(=O)c1ccc(Cl)cc1Cl)c1ccncc1
  2002, 2, 1, 5, 7.2, 10, 5
CN(C)C(=O)c1nc2ccc(Cl)cn2c1CN1CCN(c2ncccn2)CC1
  2519, -9, 2, -5, 7.4, -5, 6
O=C(NN=Cc1ccc(Br)cc1)c1cc[n+](Cc2ccccc2)cc1
  ·, ·, -2, 13, 2.7, ·, 4
CN(C)c1ccc(C(=O)N/N=C/c2ccccn2)cc1
  6399, 6, ·, ·, ·, -49, ·
COC(=O)C1=CN(Cc2cccs2)C=C(C(=O)OC)C1c1cccc(OC)c1OC
  10163, 7, 6, -6, 4.5, 4, 3
OCCCn1c(C2CCCN2c2nc(-c3ccc(F)cc3)cs2)nc2cc(Cl)c(Cl)cc21 (configuration not stated)
  3723, -8, -3, -5, -9.0, -19, 7

The results go on:
Below each SMILES – Autofluor counter, BJeLR viability, Mtb hypoxia inh, ugtP null kill, Sa RN4220 lethal, PrP UTR inh, Mtb hypoxia inh growth
O=C(NCc1ccccn1)Nc1cccc(Cl)c1Cl
  6171, 3, 5, 2, 3.6, -36, 0
O=C(O)c1ccc(OCc2occc2C(=O)O)cc1
  4708, -2, -1, 4, 0.2, -2, 6
CC(=O)N1Cc2ccccc2CC1C(=O)O (configuration not stated)
  4457, -5, 17, -2, 1.8, -18, 11
CC(=O)c1ccc(C(=O)NC2CCCN(Cc3ccccc3F)C2)cc1 (configuration not stated)
  3892, 6, -12, 2, 1.4, -14, -1
CC(OC(=O)Cn1cnc2c1c(=O)n(C)c(=O)n2C)C(=O)c1ccccc1 (configuration not stated)
  5653, -1, 8, 1, 0.2, -8, 6
O=c1cc(C2CCNCC2)[nH][nH]1
  3378, -3, ·, 5, -1.0, -8, ·
Cc1ccc(C)c(S(=O)(=O)N2CCN(C(=O)Cc3c(F)cccc3Cl)CC2)c1
  ?, 7, ·, ·, ·, -2, ·
O=C(OCC(=O)N1CCCC1)c1cc(=O)c2ccccc2o1
  8671, ·, -2, 3, 0.2, -11, -9
COc1cccc(C(=O)NC2CC3CCCC(C2)N3S(=O)(=O)c2ccccc2)c1 (configuration not stated)
  5407, 2, 19, 10, 3.0, -15, 8
CCN(CC)S(=O)(=O)c1ccc(Cl)c(NC(=O)COc2ccccc2[N+](=O)[O-])c1
  2128, -1, 1, 2, 5.3, -38, -3
COc1cccc(/C=C2/SC(=S)N(CCC(=O)N3CCOCC3)C2=O)c1
  3884, 9, 10, 4, 6.6, -3, 14
Cc1ccc(CSCC(N)C(=O)O)cc1 (configuration not stated)
  ·, 11, -1, 13, 13, ·, 5
COc1ccc(NC(=O)COCC(=O)Nc2ccc(C)cc2)cc1
  3535, -6, -5, 4, 6.4, -13, 1
N#Cc1cnn2cc(-c3ncc(C(F)(F)F)cc3Cl)cnc12
  10915, 5, 5, 10, -1.6, -32, 2
CN(C)C(=O)Oc1cccc([N+](C)(C)C)c1
  4329&5380, -3, 3&3, -5&3, 3.0&8.7, -21&-22&-19&-35, 0&-1
C=CCn1c(SCC(=O)NCC(=O)OCC)nnc1-c1ccccn1
  9436, 7, 5, 1, 3.5, -25, 8
CCOC(=O)c1c(NC(=O)C(F)(OC)C(F)(F)F)sc2c1CCN(C)C2 (configuration not stated)
  2670, 5, 8, 1, 5.7, 14, 5
CCc1ccccc1NS(=O)(=O)Cc1ccccc1
  3982, -7, 12, 5, 1.0, -11, -8
CC1CCN(C(=O)COC(=O)/C=C/c2ccc(Br)o2)CC1
  9755, ·, 9, -7, 3.5, 4, 33
CCc1ccc(NC(=O)c2ccc3c(c2)C(=O)N(Cc2ccco2)C3=O)cc1
  6028, -2, ·, -9, 7.6, -33, ·
COc1ccc(C=NNC(=O)c2cccc(S(=O)(=O)N3CCCC3)c2)cc1O
  ·, ·, 8, 5, -1.8, ·, -1
O=C(COc1ccc(Cl)cc1)N1CCN(c2ncccn2)CC1
  3580, 1, 15, -3, -14, -17, 5
Cc1ccc(-c2nc3cc(N)ccc3o2)c(C)c1
  3285, -2, -9, 3, 2.9, -33, 1
O=C(CCc1nnc2ccc(NCc3ccc(Cl)cc3)nn12)NC1CCCCC1
  5638, -8, -1, 2, 1.7, -14, 6
CCSc1nc(=O)n(-c2ccccc2)c(C)c1C(C)=O
  2528, -6, ·, -5, -5.1, -20, ·
COc1ccc(NS(=O)(=O)c2cccc(C(=O)NN=Cc3cccs3)c2)cc1
  ·, ·, -4, 4, 3.0, ·, 4

Part of the list above, with each value named.
Structure: C[C@H]1CCC[C@]2(CC(=O)c3cc(F)ccc3O2)C1
  Autofluor counter = 3423; BJeLR viability = 1; Mtb hypoxia inh = ·; ugtP null kill = ·; Sa RN4220 lethal = ·; PrP UTR inh = 5; Mtb hypoxia inh growth = ·

Structure: O=C1NC2=C(C(=O)CCC2)C(c2ccc([N+](=O)[O-])cc2)N1 (configuration not stated)
  Autofluor counter = 3774; BJeLR viability = -16; Mtb hypoxia inh = 3; ugtP null kill = 2; Sa RN4220 lethal = 0.3; PrP UTR inh = -16; Mtb hypoxia inh growth = 10

Source: PubChem BioAssay
